# Compound activity (PubChem)
# Ba CapD inh = Bacillus anthracis CapD inhibitors, primary screen, biochemical, fluorescence intensity; CapD gamma-glutamyltranspeptidase (Bacillus anthracis Ames Ancestor); purified CapD enzyme, fluorescence intensity read-out; stronger effect = lower value; some hits fall short of the stated cut; z-score (concentration not given with the values); actives 0.23% (n = 140,000); AID 492967, 2010;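 active means z-score under -4 in either of two replicates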;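 further: stock transfer was 100 nL into about 40 µL; score is relative to mean and spread of the plate; one replicate is shown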
# AID504770 = growth inhibition of E. coli YBA685, primary screen, V. cholerae RctB inhibitors. E. coli YBA685 rctB-dependent plasmid, OD600 growth, 3 h; stronger effect = lower value. z-score (no concentration beside the values). actives 0.27% (n = 130,000). AID 504770, 2011;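 active means z-score under -2 on both plates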;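 further: wells of about 30 µL received 100 nL stock; score is relative to mean and SD of the test wells; the first replicate is given; strong numbers were not always called active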
# An asterisk follows results filed as active; nt = no result given. Not all compounds are listed; count on the stated rates, not on these rows.
# Second line of a record – Ba CapD inh, AID504770
COc1ccc2nc(C)c3c(c2c1)OC(C)C3 (centres undefined)
 : -0.99, 2.5
CCc1ccc(NC(=O)N2CC(C)CC(C)C2)cc1 (centres undefined)
 : -0.2, -1.1
CCOC(=O)C1=CN(Cc2ccc(OC)c(OC)c2)C=C(C(=O)OCC)C1c1ccc(OCC)c(OC)c1
 : 38, nt
CCCn1ccc2c(OCC(=O)c3ccccc3)cccc2c1=O
 : nt, -0.8
COc1ccc(-c2csc(-c3ccc(O)cc3)n2)cc1
 : 8.6, 1.4
Clc1ccc(CSC2=Nc3cc(Cl)ccc3SCC2)cc1
 : -0.44, nt
O=C(Cc1cn2ccsc2n1)NC12CC3CC(CC(C3)C1)C2
 : nt, -0.15
COc1ccc(-c2c(C)nn3c(NCCN4CCCC4)cc(C)nc23)cc1OC
 : 0.01, 1.7
COc1cc(C)c2c(=O)c(-c3nc(C)cs3)coc2c1
 : nt, -0.85
Cc1ccc2c(c1)N(CC(N)=O)C(=O)CO2
 : -0.23, -1.4
O=C(Cc1ccccc1)NCCSc1c[nH]c2ccccc12
 : 0.17, -0.05
COC(=O)Cn1c(C)nc(=O)c(-c2ccccc2)c1C
 : -0.59, -1.1
CNC(=O)CCCN1C(=O)c2ccccc2C1=O
 : -0.27, -1.2
Cc1cc(SCC(=O)Nc2ncc(Cl)cc2Cl)nc2ccccc12
 : -0.33, -0.35
O=C(Nc1ccc(CSc2ccc(F)cc2)cc1)c1c(F)cccc1F
 : -0.41, nt
O=C(c1cccs1)N1CCCCC1c1ccccn1 (centres undefined)
 : -0.6, 0.25
O=C(CSc1nc2ccccc2c(=O)n1CC1CCC(C(=O)NCC2CCCO2)CC1)NCCc1ccccc1 (centres undefined)
 : -0.32, nt
CCC(C)N(C(=O)CSc1ccc2c(c1)OCCO2)C1CCS(=O)(=O)C1 (centres undefined)
 : nt, 0.55
O=S(=O)(c1ccc(O)cc1)c1ccc(Cl)cc1
 : nt, -0.9
CCCN1C(=O)C2C(c3ccc(O)cc3)NN(Cc3ccccc3)C2C1=O (centres undefined)
 : nt, -0.65
Cc1cc(C)n2nc(/C(C#N)=C/c3ccc(Cl)cc3Cl)c(C#N)c2n1
 : 0.38, nt
CC(C)CN(CC(C)C)C(=O)CSc1nc2ccccc2[nH]1
 : -0.35, 0.15
CC(=O)N1C(=O)/C(=C(\C#N)C(=O)NCCc2ccccc2)c2ccccc21
 : 0.21, 0.25
O=C1c2ccccc2S(=O)(=O)N1CC1CC(c2ccccc2)=NO1 (centres undefined)
 : 0.12, -0.65
Cc1nnc2sc(-c3cccc(NC(=O)c4cccc(F)c4)c3)nn12
 : -0.47, -0.95
CCOC(=O)c1cnc2c(C)cc(C)cc2c1Nc1ccccc1CC
 : -0.11, nt
CCCn1c(=O)n(CCC)c2c(C)cc(C)cc21
 : -0.71, 1.1
Cc1cccc(NC(=O)c2ccco2)c1C(=O)O
 : 0.38, -0.2
CCCCCCCCCCCC1SC[C@@H](C(=O)O)N1C(C)=O (some centres undefined)
 : 0.84, nt
O=C(OCc1cc2cccc3c2n(c1=O)CCC3)c1cccc(C(F)(F)F)c1
 : 5, nt
COCCN1C(=O)c2ccccc2N2C(=O)CCC12C(=O)Nc1ccc(C)cc1 (centres undefined)
 : nt, 0.55
O=C1CC(c2ccc(F)cc2)CC(O)=C1C=NCCN1CCN(C(=S)Nc2ccccc2)CC1 (centres undefined)
 : -0.24, 0.15
Cc1cc2ccccc2n1CCNC(=O)Cc1cccc2ccccc12
 : -0.36, -0.15
Cc1ccc(N)c(C(NCC(=O)NN)c2ccccc2)c1 (centres undefined)
 : nt, -0.9
COCc1cc(C)c2c(N)c(C(=O)c3ccc(Cl)cc3Cl)sc2n1
 : -0.47, nt
O=C(CC1N=C2c3ccccc3N=C(SCC(=O)c3ccccc3)N2C1=O)NCCc1ccccc1 (centres undefined)
 : 0.32, -0.55
C=CCn1cnnc1SCC(=O)c1cc(C)n(CC(F)(F)F)c1C
 : nt, 1.8
CCOc1ccc(S(=O)(=O)Nc2cc(C(C)(C)C)nn2-c2ccccc2)cc1
 : nt, 1.1
COc1ccc(NC(=O)CSc2nc(C)cc(C(F)(F)F)c2C#N)cc1
 : -0.5, nt
Cc1ccc(CN2CCC(C(=O)NC(C)C)CC2)cc1
 : -0.01, 0.35
Cc1cccc[n+]1C1C(c2ccc([N+](=O)[O-])cc2)C(C#N)=C(C(=C=[N-])C#N)NC1(O)C1CC1 (centres undefined)
 : 5.9, nt
Cc1ccc2c(c1)sc(=NC(=O)CN1C(=O)CCC1=O)n2C
 : -0.52, -1.4
CCOC(=O)c1sc(N)c(C#N)c1CSc1nnc2ccccn12
 : nt, -0.25
Nc1[nH]nc(Nc2cccc(Cl)c2Cl)c1C(=O)c1cccs1
 : 4.2, 1.9
O=C(O)/C=C/c1cn(-c2ccccc2)nc1-c1ccccc1
 : 0.36, 0.95
O=C(C1CCN(S(=O)(=O)c2cccs2)CC1)N1CCCC1c1nc2ccccc2s1 (centres undefined)
 : nt, 1.7
CC(C)c1ccc(N(C)S(=O)(=O)c2ccc3[nH]cc(C(=O)N4CCN(c5ccccc5)CC4)c(=O)c3c2)cc1
 : -0.02, nt
CCc1ccc(N2C(N)=C(C#N)C(c3cccc(Cl)c3)c3c(C)noc32)cc1 (centres undefined)
 : -0.22, -0.35
Cc1ccc(-n2cccc2)c(O)c1
 : 0.1, 0.2
O=CN(c1ccccc1)c1ccccc1
 : 0.02, -1
O=S(=O)(c1ccc(Cl)cc1)N1CCNCC1
 : nt, -1
CCC(=O)NCC[C@@H]1CCc2ccc3c(c21)CCO3
 : nt, 0.05
Cc1cc2c(cc1C)CSC(c1cc(Cl)ccc1O)SC2
 : 0.07, nt
CN(C)c1ccc(CN2CCN(CCOC(=O)N3CC=C(n4c(=O)[nH]c5ccccc54)CC3)CC2)cc1
 : -0.67, nt
COC(=O)c1cn(C)c2ccc(S(=O)(=O)N3CCCCC3)cc2c1=O
 : 0.48, 0
O=C(CSc1nnc(-c2ccc(NS(=O)(=O)c3ccccc3)cc2)o1)NCC1CCCO1 (centres undefined)
 : nt, -0.25
NC(=O)c1c(NC(=O)CSc2nc3ccccc3o2)sc2c1CCCC2
 : -0.88, nt
O=C(Cc1ccc(-n2c(=S)[nH]c3ccccc3c2=O)cc1)N1CCCC1
 : 1.7, 0.3
CCOC(=O)C1=C(C)N=c2s/c(=C\c3ccc(O)c(OC)c3)c(=O)n2C1c1cc(OC)ccc1OC (centres undefined)
 : 0.7, nt
O=C1NC(=O)C(=Cc2ccc3c(c2)OCO3)C(=O)N1
 : 0.69, nt

# Later entries:
# Second line of a record – Ba CapD inh, AID504770
CC(C)N1C2OC(C3OC4C(O3)N(C(C)C)S(=O)(=O)N4C(C)C)OC2N(C(C)C)S1(=O)=O (centres undefined)
 : 0.49, -0.05
CCc1nc(SCC#N)c(C#N)cc1C
 : 0.79, 1.6
O=S(=O)(NCCN1CCCCC1)c1cccc(Cl)c1Cl
 : -0.055, nt
CCN(CC)C(=O)CN1C(=O)C2(Nc3ccccc3C(=O)N2c2ccc(Cl)cc2)c2ccccc21 (centres undefined)
 : 1.9, nt
O=S(=O)(NCC(c1cccnc1)N1CCN(c2ccccc2F)CC1)c1cccs1 (centres undefined)
 : nt, 1.9
CCN(CC)c1ccc(/C=N/c2nc3c(s2)CCCC3)c(O)c1
 : 0.07, -0.2
Cc1ccc(CN2C(=O)CCC2C(=O)O)cc1 (centres undefined)
 : nt, -0.45
CCOC(=O)c1sc(NC(=O)CSc2nc3ccccc3[nH]2)nc1C
 : -0.32, nt
NC(=O)C1CCN(c2ncnc3c2cnn3-c2ccccc2)CC1
 : 0.11, -0.8
O=C(NCCNc1ccc([N+](=O)[O-])cn1)N1CCN(Cc2ccc3c(c2)OCO3)CC1
 : -0.27, nt
CCCNC(=O)c1ccc(Cl)c(S(=O)(=O)Nc2ccccc2)c1
 : -0.41, -0.2
NC(=O)c1ccc2nc3ccsc3c(=O)n2c1
 : 88, 0.2
COc1ccc(C2=NN(CCC(=O)NCCN3CCN(c4cccc(Cl)c4)CC3)C(=O)CC2)cc1
 : 2, -0.45
NC(=S)NN1C(=O)C2CC=CCC2C1=O (centres undefined)
 : nt, -1.5
CN(C)S(=O)(=O)c1ccc(C(=O)OCC(=O)c2cn(CCC#N)c3ccccc23)cc1
 : nt, 0.05
O=c1ccc(-c2nc3cc(Cl)c(Cl)cc3[nH]2)c[nH]1
 : 4.1, 0.1
CC12CC3(C)CC(C)(C1)CC(C(=O)NC(=S)N1CCCC1)(C2)C3
 : 0.19, 1.5
C=CCSC1=NC2(CC(c3ccccc3Cl)Oc3cc(O)c(Cl)cc32)CC(C)(C)N1 (centres undefined)
 : -0.04, nt
C=C(C)CNC(=S)N=Nc1c(O)n(C)c2ccccc12
 : nt, -0.05
Nc1nncn1C(=O)c1ccc(Br)cc1
 : 0.79, -0.65
Clc1ccc(-c2cn3cccnc3n2)cc1
 : 98, -1.1
O=C1CC(c2ccc(C(F)(F)F)cc2)c2cc(Br)c3ccccc3c2N1 (centres undefined)
 : 1.3, nt
NS(=O)(=O)c1ccc(N2C(=O)Nc3ccccc3N2O)cc1
 : -0.22, 1.1
CC1(C)CC(=O)c2cc3c(N)c(C(=O)c4ccccc4)sc3nc2C1
 : 0.01, 1.6
Cc1cc(C(F)(F)F)c(C#N)c(SCC(=O)Nc2ccccc2)n1
 : -0.17, nt
Cc1ccc(N(Cc2ccco2)C(=O)COc2ccc3oc(=O)cc(C)c3c2)cc1
 : 7.2, 0.45
CC(OC(=O)/C=C/c1cccs1)C(=O)Nc1ccc(S(N)(=O)=O)cc1 (centres undefined)
 : nt, -0.2
O=c1[nH]c(=S)[nH]c(O)c1N=Nc1ccc(F)cc1
 : nt, -2.7
COc1ccc(C2=NN3C(C2)c2cccc(OC)c2OC3c2cc(OC)c(OC)c(OC)c2)cc1 (centres undefined)
 : -0.84, nt
C=CCn1cnc2c(nnn2-c2ccc(OC)c(OC)c2)c1=O
 : nt, 0.7

# One compound at a time, as listed above.
# Cc1cc2c(cc1C)CSC(c1cc(Cl)ccc1O)SC2 is entered as Ba CapD inh = 0.07; AID504770 = nt
# CC(C)N1C2OC(C3OC4C(O3)N(C(C)C)S(=O)(=O)N4C(C)C)OC2N(C(C)C)S1(=O)=O (centres undefined) is entered as Ba CapD inh = 0.49; AID504770 = -0.05
# Cc1ccc(N(Cc2ccco2)C(=O)COc2ccc3oc(=O)cc(C)c3c2)cc1 is entered as Ba CapD inh = 7.2; AID504770 = 0.45

# Going on with the list.
# Second line of a record – Ba CapD inh, AID504770
CCOC(=O)C1=C(C)C(c2ccc(OC)cc2)NC(=O)N1 (centres undefined)
 : nt, -0.2
COC(=O)c1cn(CC(=O)OCc2ccc(-n3nc(C)cc3C)cc2)c2ccccc12
 : nt, -0.45
O=C(CC1Nc2c3ccccc3nc(=S)n2C1=O)NCc1cccc(Cl)c1 (centres undefined)
 : 2.2, 0
COc1ccccc1/C=C/C(=O)OCCN1CCCC1=O
 : 18, 0.05
COC(=O)N/N=C(\C)c1ccccc1OC
 : nt, -0.25
COc1ccc2cc(CCNC(=O)C(C)Oc3ccccc3)c(=O)[nH]c2c1 (centres undefined)
 : 4.5, -1.1
CCOC(=O)CNS(=O)(=O)c1cc(-c2nnc(Nc3ccc(OC)c(C(N)=O)c3)c3ccccc23)ccc1C
 : -0.47, nt
C(=N\n1cnnc1)/c1ccco1
 : -0.56, -0.5
Cc1nn(Cc2ccccc2Cl)c2sc(C(=O)Nc3sccc3C(N)=O)cc12
 : nt, -0.2
O=C(c1ccccc1)c1cc(Br)ccc1NC(=O)c1cc2ccccc2oc1=O
 : 0.24, nt
C(=C\c1ccccc1)/CSc1nnc(-c2cccnc2)o1
 : -0.045, -0.3
CC1=C(C(=O)Nc2ccc(Cl)cn2)C2(CCCCCC2)OC1=O
 : 0.76, 0.45
Cn1c(Sc2ncc(C#N)c(N)n2)nnc1-c1ccncc1
 : 0.46, -0.4
O=C(Oc1ccccc1Cl)C1=CC=CN2CCS(=O)(=O)N=C12
 : nt, -0.6
O=C(Nc1ccc2ccccc2c1)c1ccc(Br)o1
 : 0.45, -0.4
CC(NS(=O)(=O)c1cccc2nsnc12)C(=O)OCc1cccc(C(F)(F)F)c1 (centres undefined)
 : nt, 1.3
CC/C(=C/c1ccccc1)CN1CCCCC1
 : 0.01, -0.65
CN(C)S(=O)(=O)c1ccc(C(=O)Nc2ccccc2C(=O)NCc2ccc3c(c2)OCO3)cc1
 : nt, 0.8
Cc1noc(C)c1CSc1ncccc1C(=O)N(C)c1ccc2ccccc2c1
 : nt, -0.35
CCC1(C)NC(=O)N(Nc2ncnc3sc4c(c23)CCC4)C1=O (centres undefined)
 : nt, -0.2
COc1cccc(CNC(=O)Cc2nc(-c3ccccc3)sc2C)c1
 : 2.1, nt
COC(=O)c1csc2c(C(F)(F)F)cc(N3CCN(C(=O)Nc4cc(Cl)cc(Cl)c4)CC3)nc12
 : 3.7, nt
Cc1ccc(C)c(SCC(=O)C(C#N)c2nc(C)cs2)c1 (centres undefined)
 : nt, 0.75
CCCCCCCCOc1ccc(C(=O)Oc2ccc(OCCCCC)cc2)cc1
 : -0.075, nt
O=S(=O)(c1ccccc1F)N1CCN(Cc2ccc(Cl)cc2)CC1
 : -0.17, nt
FC(F)(F)c1cc(C(F)(F)F)c2ccc3nnnn3c2n1
 : 3.6, -0.55

# Structures from the list above that contain a nitro group on carbon, in the order listed:
# Second line of a record – Ba CapD inh, AID504770
Cc1cccc[n+]1C1C(c2ccc([N+](=O)[O-])cc2)C(C#N)=C(C(=C=[N-])C#N)NC1(O)C1CC1 (centres undefined)
 : 5.9, nt
O=C(NCCNc1ccc([N+](=O)[O-])cn1)N1CCN(Cc2ccc3c(c2)OCO3)CC1
 : -0.27, nt

# Another view of some results above.
canonical_smiles,Ba CapD inh,AID504770
C=CCn1cnnc1SCC(=O)c1cc(C)n(CC(F)(F)F)c1C,nt,1.8
Cc1cc(C)n2nc(/C(C#N)=C/c3ccc(Cl)cc3Cl)c(C#N)c2n1,0.38,nt
